Bioassay records (PubChem BioAssay)
Vaccinia Venus – qHTS for Stage-Specific Inhibitors of Vaccinia Orthopoxvirus: Venus Reporter Primary qHTS; Vaccinia virus Venus reporter expression, fluorescence; Potency, µM (doses to about 36.5 µM), for the others: at the top dose activity change, negative = inhibition, hits mostly inhibitors; actives 0.46% (n = 330,000); AID 720580, 2013; active means well fitted inhibition curve with a large enough effect; inconclusive means small, poorly fitted or top-dose-only effect; inactive means no such curve, though single readings can be large or run the other way; tested in A549 cells; also: nearly all actives have a fitted effect of over 30% in size; inactives centre near -10
Vaccinia mCherry – qHTS for Stage-Specific Inhibitors of Vaccinia Orthopoxvirus: mCherry Reporter Primary qHTS; actives 0.63% (n = 310,000); AID 720579, 2013; Vaccinia virus mCherry reporter infection, fluorescence; about a quarter of the inactives have no number; Potency, µM (titrated, usually from 36.5 µM), inactives show at the highest dose activity change, negative = inhibition, most hits filed as inhibitors; active = well fitted inhibition curve with a large enough effect; inconclusive = small, poorly fitted or top-dose-only effect; inactive = no such curve, though single readings can be large or run the other way; tested in A549 cells; also: nearly all actives have a fitted effect of over 35% in size; inactives centre near -10
The depositor's hits bear a star; i = inactive; ? = inconclusive; nt = no result given; [ ] = dose if it differs, or a comment. % is scaled to controls: 0 for no effect and ±100 for the full control effect; potency is read from the fitted curve at half-maximal effect.

SMILES	Vaccinia Venus	Vaccinia mCherry
CCOC(=O)C1(Cc2cccc(F)c2)CCN(Cc2ccon2)CC1	-2%	-1%
COc1ccc(OC)c(C(O)C2CCCCN2)c1 (configuration not stated)	-1%	-11%
CCc1ccc(C(=O)CN2C(=O)NC3(CCCCCC3)C2=O)cc1	-7%	-29%
COCCn1c(C)cc(O)c(C(c2ccc(F)cc2)N2CCC(C)CC2)c1=O (configuration not stated)	-2%	-10%
C#CC(C)(C)NS(=O)(=O)c1cc(-c2nnc(Nc3ccc(C)cc3)c3ccccc23)ccc1C	?	?
Cc1cc(C(=O)NCC(c2ccco2)N(C)C)ccc1[N+](=O)[O-] (configuration not stated)	-3%	4%
COc1ccc(Cn2c(C(=O)O)c(CNCc3ccco3)c3ccc(C)cc32)cc1	-7%	-4%
CCOC(=O)c1c(C)[nH]c(C)c1C(=O)CSc1nc(N)cc(N)n1	-4%	-6%
COc1ccc(NC(=O)COC(=O)CCCC2=NS(=O)(=O)c3ccccc3N2)cc1Cl	-8%[7.34 µM]	-16%[7.34 µM]
Cc1ccc(N2CCN(C(=O)c3nn(C)c4c3CS(=O)(=O)c3ccccc3-4)CC2)c(C)c1	-18%	-16%
Cn1c(CN2CCCCC2)nc2cc(NC(=O)c3ccc(Cl)cc3)ccc21	-24%	?
S=c1nc(C2CC2)n(-c2ccccc2)[nH]1	15%	i
COc1ccc(Cl)cc1NC(=O)N1CCC(CN2CCc3ccccc3C2)CC1	-6%	-4%
Cc1nnc(NCCc2ccccc2)n(N)c1=O	?	nt
Cc1ccccc1CSc1nc2cccnc2n1Cc1ccc(C(=O)NCCc2cccs2)cc1	-15%	-21%
CCC(C)C(NC(=O)C(N)CC(C)C)C(=O)NC(CCC(=O)OCc1ccccc1)C(N)=O (configuration not stated)	-15%	?
O=C(O)c1ccccc1NSc1ccccc1[N+](=O)[O-]	-7%	i
Cc1ccc(NC(=O)CCNC(=O)c2ccc(Br)cc2)cc1S(=O)(=O)N1CCCCCC1	-20%	?
CN(C)C(=O)c1ccccc1Sc1ccc(Cl)cc1Cl	-15%	nt
CCCCOc1cccc(C(=O)N(Cc2sccc2C)C2CCS(=O)(=O)C2)c1 (configuration not stated)	-16%	-17%
O=C(OCC(=O)N1CCN(C(=O)c2ccco2)CC1)c1cc(-c2ccc(F)cc2)nc2ccccc12	-14%	i
COC(=O)[C@@]12CCCCN1[C@H](c1ccc(-c3ccc(C(C)=O)cc3)cc1)[C@H]1C(=O)N(C)C(=O)[C@H]12	?	-15%
COc1ccc(N2CCN(C(=O)CCn3c(=O)[nH]c4cc(OC)c(OC)cc4c3=O)CC2)cc1	2%	-7%
COc1ccc(-c2cnc[nH]2)cc1	-2%	i
CCN1c2ccccc2-c2nc(SCC(=O)NCc3ccc(Cl)cc3)ncc2S1(=O)=O	-6%	-18%
SMILES	Vaccinia Venus	Vaccinia mCherry
N#Cc1ccc(NC(=S)N2CCC3CC2c2cc(-c4ccc5c(c4)OCO5)ccc23)cc1 (configuration not stated)	-14%	i
CS(=O)(=O)c1ccc2nc(NC(=O)CCNC(=O)c3ccc([N+](=O)[O-])cc3)sc2c1	-23%	i
Nc1cccc(NC(=O)c2cccs2)c1	-17%	-20%
CC/C(=N/NC(=O)c1ccc(Br)cc1)c1ccc(OCCN2CCOCC2)cc1	-20%	-28%
C(=N\Nc1nc(-c2cccnc2)nc2ccccc12)/c1ccccc1	-2%	-14%
COc1cccc(N2C(=NC(=O)c3ccccc3)SC3CS(=O)(=O)CC32)c1 (configuration not stated)	-3%	4%
CC(=O)c1ccc(N2CCN(c3nc4c(S(=O)(=O)c5ccccc5)nnn4c4ccc(Cl)cc34)CC2)cc1	-23%	i
CCC(=O)Nc1sc2c(c1C(=O)Nc1cccc(C)c1)CCCC2	?	?
CCN1CCN(C(=O)c2cc3c(=O)n4ccccc4nc3s2)CC1	10%	-2%
Cn1c(SCC(=O)NCC2CCCO2)nc2c(c1=O)SCC2 (configuration not stated)	-11%	-15%
CO[C@H]1C=C2CCN(C)[C@H]2C2c3cc4c(cc3C(=O)O[C@@H]21)OCO4 (some centres not stated)	-11%	-1%
O=[N+]([O-])c1ccc(-c2nnc3cccc(Cl)n23)cc1	-7%	i
Cc1ccc(O)c(NC(=O)c2ccco2)c1	-18%	-24%
CCCCOC(=O)c1c(C)oc2ccc(NS(=O)(=O)c3ccc(F)cc3C)cc12	2%	-8%
CCOC(=O)C1=C(C)N(CCCC(=O)O)C(=O)NC1c1ccccc1Cl (configuration not stated)	-9%	-11%
Cc1ccc(NC(=O)Cn2cnc3sc(C)c(S(=O)(=O)N4CCN(c5ncccn5)CC4)c3c2=O)cc1F	-4%	-8%
O=C(Nc1nc(-c2ccccc2)ns1)c1cccs1	-15%	-7%
CC(=O)N(Cc1cc2c(C)cc(C)cc2[nH]c1=O)C1CCCCC1	?	nt
COc1ccccc1NC(=O)CSc1n[nH]c(-c2cccnc2)n1	-17%	-17%
Cc1ccc(CCNC(=O)CN(c2ccc(C)cc2)S(=O)(=O)N(C)C)cc1	-3%	-7%
O=C(NC(=O)c1ccc(Cl)cc1)Nc1cc(N2CCCCC2)ncn1	-14%	-18%
COCCNC(=S)NC1CC2CCC(C1)N2Cc1ccccc1 (configuration not stated)	1%	-11%
COc1ccc(NC(=O)CSc2nnc(Cn3cnc([N+](=O)[O-])n3)n2C)cc1	-5%	-18%
O=C(C1CCN(C2CC(=O)N(Cc3ccccc3)C2=O)CC1)N1CCCCCC1 (configuration not stated)	-14%	nt
CC(C)N1CCc2c(sc(NC(=O)c3ccc(S(=O)(=O)N4CCOCC4)cc3)c2C#N)C1	2%	-12%
SMILES	Vaccinia Venus	Vaccinia mCherry
Cc1cc2occ(CC(=O)N(C)CC(=O)Nc3cccc(F)c3)c2cc1C	?	-9%
Cc1ccc(C(=O)Nc2ccc(N3CCN(C(=O)c4cccs4)CC3)cc2)c(Cl)c1	-20%	i
COC(=O)c1ccc(Cn2c(C)c(C(=O)NCc3cccc([N+](=O)[O-])c3)sc2=O)o1	-1%	39%[activator]
COc1ccc(NC(=O)CCCCCn2nnc3ccccc3c2=O)cc1	-20%	0%
CCOC(=O)c1ccc(Nc2nc(C)cc(C)n2)cc1	2%	-12%
CCOC(=O)[C@]12CCC=C1N(Cc1ccco1)C(=O)[C@H](CC(=O)N1CCSCC1)C2	4%	14%
CS(=O)(=O)N(Cc1ccc(C(=O)NN=C2CCCC2)cc1)c1ccccc1	-11%	i
CCOc1ccc(CCNC(=O)COC(=O)c2nccnc2N)cc1OCC	-16%	-21%
Cc1ccc(S(=O)(=O)n2c(CN3CCCC(C)C3)nc3ccccc32)cc1 (configuration not stated)	-14%	-3%
O=C(Nc1ccc([N+](=O)[O-])cc1)C1COc2ccccc2O1 (configuration not stated)	-17%	-4%
Cn1cc(CN2CCCC(C(=O)c3ccc(-c4ccccc4)c(F)c3)C2)cn1 (configuration not stated)	-9%	?
CCCNC(=O)c1ccc(N2CCC3(CC2)CC(c2ccccc2)=NO3)c(N)c1	-21%	i
COc1ccc(C(C)(NC(C)=O)c2nc(-c3cccc(C(=O)O)c3)cs2)cc1 (configuration not stated)	-16%	-10%
Cc1cccc(NC(=O)CSc2cn(CC(=O)N3CCC(C)CC3)c3ccccc23)c1C	-10%	-4%
N#CC1=C(N)SC2(CCCCC2)SC1c1ccccc1 (configuration not stated)	13%	nt
C=CCNc1nc(-c2sc(NC(=O)C(C)(C)C)nc2C)c(-n2cc(-c3ccccc3)nn2)s1	-27%	?
O=C(CNC(=O)C1CCCCC1)NNC(=O)c1ccc(Cl)cc1Cl	-14%	i
Cc1cc(C(=O)Nc2ccccc2)oc1C	-17%	nt
CCOC(=O)N(NC(=O)C(O)(C(C)C)C(C)C)c1ccccc1	2%	i
COCCNc1nc(Nc2ccccc2Cl)c2sccc2n1	?	-27%
N/C(=N\OS(=O)(=O)c1ccccc1)c1ccncc1	-14%	-1%
CCCN(CCO)Cc1ccc(Cl)c(Cl)c1	-6%	-2%
Cc1c(C(=O)N2CC[C@@H]3CCCC[C@H]3C2)sc2ncnc(NCCc3ccccn3)c12	5%	-5%
COCOc1ccc(-c2cc(=O)c3c(OCOC)cc(OCOC)cc3o2)cc1	-5%	-5%
CCCC1C(C#N)=C(N)Oc2c1c(=O)oc1ccccc21 (configuration not stated)	-1%	nt

A second format for part of the listing above.
The line under a structure holds: Vaccinia Venus, Vaccinia mCherry
CCOC(=O)c1ccc(Nc2nc(C)cc(C)n2)cc1
 : 2%, -12%
CCOC(=O)[C@]12CCC=C1N(Cc1ccco1)C(=O)[C@H](CC(=O)N1CCSCC1)C2
 : 4%, 14%

Returning to the listing with the two entries that preceded the break.
SMILES	Vaccinia Venus	Vaccinia mCherry
COCOc1ccc(-c2cc(=O)c3c(OCOC)cc(OCOC)cc3o2)cc1	-5%	-5%
CCCC1C(C#N)=C(N)Oc2c1c(=O)oc1ccccc21 (configuration not stated)	-1%	nt
O=C(NCC1CCCO1)C1CCC(=O)N1CCc1ccccc1 (configuration not stated)	-4%	-11%
CCOc1ccccc1NC(=O)COn1nnc2ccc(Cl)cc21	-15%	?
CC(C)(C)N1NC2(CCCCC2)NC1=S	-6%	1%
COC(=O)C1(CCSC)NC(c2ccccc2F)C2C(=O)N(c3ccc4c(c3)OCCO4)C(=O)C21 (configuration not stated)	-14%	i
Cc1cccc(COc2ccc(-c3cc(C(F)(F)F)n4nc(C)cc4n3)cc2)c1	0%	-3%
Cc1ccc(NC(=O)N(CCCN2CCOCC2)Cc2cccs2)cc1C	-20%	i
O=C(COc1ccc(Cl)cc1)N1CCN(C(=O)c2cccc(F)c2)CC1	-4%	i
C/C(CC(=O)Nc1cccc(C(F)(F)F)c1)=N\NC(=O)Cc1ccccc1	-13%	-13%
C/C(=N\NC(=O)c1c(C)nc2ccccn12)c1ccc(C(C)(C)C)cc1	?	-19%
CCC(C)(C)C1CCC2(CC1)NC(=O)N(CC(=O)Nc1cc(C(F)(F)F)ccc1N1CCOCC1)C2=O (configuration not stated)	-10%	-12%
COc1ccc(NC(=O)C(=O)NCC(c2ccco2)N2CCc3ccccc32)cc1 (configuration not stated)	-19%	-1%
Oc1ccc(Br)cc1-c1cc(-c2ccccc2)n[nH]1	-28%	-12%
O/N=C/c1c[nH]c2ccccc12	-23%	nt
COc1ccc(F)cc1C(=O)C1CCCN(C(=O)CCc2ccccn2)C1 (configuration not stated)	1%	i
O=c1cc(-c2ccccc2)cc(-c2ccccc2)n1O	?	14µM*
COc1ccc(CCNC(=O)c2cc(-c3cc(Cl)ccc3O)n[nH]2)cc1OC	-18%	-7%
Cc1cc(C)c2c(N)c(C(=O)c3ccc(Cl)cc3Cl)sc2n1	-15%	-14%
CC(C)(C)CN1CCN(Cc2cccnc2)CC1CCO (configuration not stated)	-13%	-14%
O=C(NCc1ccco1)c1ccc([N+](=O)[O-])o1	-16%	-18%
O=S(c1ccccc1)c1ccccc1	-14%	i
O=[N+]([O-])c1ccc(N2CCN(S(=O)(=O)c3ccccc3)CC2)cc1	-10%	-12%
CCOC(=O)C1CCN(S(=O)(=O)c2ccc3c(c2)CCCN3C(C)=O)CC1	-6%	-12%
CN(C)CCNC(=O)Cn1ccc2cc(S(=O)(=O)N3CCCCCC3)ccc21	-13%	-6%
Cc1noc(N)c1C(=O)Nc1ccccc1F	7.9µM*	i[1.46 µM]
CN(C)CCC(C(=O)c1ccccc1)c1ccncc1 (configuration not stated)	-7%	-13%
SMILES	Vaccinia Venus	Vaccinia mCherry
Cn1cccc1C(=O)NNC(=O)c1ccccc1Br	-7%	-11%
O=C(CSc1nc2ccc(Cl)cc2[nH]1)c1ccc2c(c1)OCO2	-5%	i
Cc1ccc(-n2nc(C)c3c2OC(N)=C(C#N)C3c2ccncc2)cc1 (configuration not stated)	-8%	-10%
C=CCC(NCc1ccccc1)c1ccccc1 (configuration not stated)	-14%	-8%
CN1C(=O)N(CC(=O)N2CCN(c3ncccn3)CC2)C(=O)C12CCCCC2	-8%	-11%
C/C(N)=C(/C#N)C(=O)COC(=O)c1cc(-c2cccc(Br)c2)nc2ccccc12	-2%	-10%
O=C(CCN1c2ccccc2Sc2ccccc21)Oc1ccccc1	-25%	i
CCn1c(SCC(=O)Nc2ccccc2)nc2ccccc2c1=O	-3%	-6%
O=C(NCc1ccc2c(c1)OCO2)C1CCC(CNc2c(N3CCCC3)c(=O)c2=O)CC1 (configuration not stated)	-6%	3%
COc1ccccc1C(=O)O/N=C(\N)c1ccccn1	15%	i

Rewritten bar-delimited: entries from further up
Structure | Vaccinia Venus | Vaccinia mCherry
C=CCC(NCc1ccccc1)c1ccccc1 (configuration not stated) | -14% | -8%
CN1C(=O)N(CC(=O)N2CCN(c3ncccn3)CC2)C(=O)C12CCCCC2 | -8% | -11%
C/C(N)=C(/C#N)C(=O)COC(=O)c1cc(-c2cccc(Br)c2)nc2ccccc12 | -2% | -10%
O=C(CCN1c2ccccc2Sc2ccccc21)Oc1ccccc1 | -25% | i
CCn1c(SCC(=O)Nc2ccccc2)nc2ccccc2c1=O | -3% | -6%
O=C(NCc1ccc2c(c1)OCO2)C1CCC(CNc2c(N3CCCC3)c(=O)c2=O)CC1 (configuration not stated) | -6% | 3%
COc1ccccc1C(=O)O/N=C(\N)c1ccccn1 | 15% | i
